NPR1 antag – human Npr1 receptor antagonism; hit rate 1.6% among 76,000; P16066; HEK293 hNpr1 GloSensor cGMP, ANP-stimulated luminescence; Potency, µM (titrated, usually from 46.3 µM), inactives show at the top dose activity change, negative = inhibition, actives largely listed as inhibitors; active = well fitted inhibition curve with a large enough effect; inconclusive = small, poorly fitted or top-dose-only effect; inactive = no such curve, though single readings can be large or run the other way;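 note: nearly all actives have a fitted effect of over 60% in size; nearly all hits also lower the signal before the agonist is added; a reference antagonist and vehicle were the controls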
Target sequence (P16066 whole entry, looked up): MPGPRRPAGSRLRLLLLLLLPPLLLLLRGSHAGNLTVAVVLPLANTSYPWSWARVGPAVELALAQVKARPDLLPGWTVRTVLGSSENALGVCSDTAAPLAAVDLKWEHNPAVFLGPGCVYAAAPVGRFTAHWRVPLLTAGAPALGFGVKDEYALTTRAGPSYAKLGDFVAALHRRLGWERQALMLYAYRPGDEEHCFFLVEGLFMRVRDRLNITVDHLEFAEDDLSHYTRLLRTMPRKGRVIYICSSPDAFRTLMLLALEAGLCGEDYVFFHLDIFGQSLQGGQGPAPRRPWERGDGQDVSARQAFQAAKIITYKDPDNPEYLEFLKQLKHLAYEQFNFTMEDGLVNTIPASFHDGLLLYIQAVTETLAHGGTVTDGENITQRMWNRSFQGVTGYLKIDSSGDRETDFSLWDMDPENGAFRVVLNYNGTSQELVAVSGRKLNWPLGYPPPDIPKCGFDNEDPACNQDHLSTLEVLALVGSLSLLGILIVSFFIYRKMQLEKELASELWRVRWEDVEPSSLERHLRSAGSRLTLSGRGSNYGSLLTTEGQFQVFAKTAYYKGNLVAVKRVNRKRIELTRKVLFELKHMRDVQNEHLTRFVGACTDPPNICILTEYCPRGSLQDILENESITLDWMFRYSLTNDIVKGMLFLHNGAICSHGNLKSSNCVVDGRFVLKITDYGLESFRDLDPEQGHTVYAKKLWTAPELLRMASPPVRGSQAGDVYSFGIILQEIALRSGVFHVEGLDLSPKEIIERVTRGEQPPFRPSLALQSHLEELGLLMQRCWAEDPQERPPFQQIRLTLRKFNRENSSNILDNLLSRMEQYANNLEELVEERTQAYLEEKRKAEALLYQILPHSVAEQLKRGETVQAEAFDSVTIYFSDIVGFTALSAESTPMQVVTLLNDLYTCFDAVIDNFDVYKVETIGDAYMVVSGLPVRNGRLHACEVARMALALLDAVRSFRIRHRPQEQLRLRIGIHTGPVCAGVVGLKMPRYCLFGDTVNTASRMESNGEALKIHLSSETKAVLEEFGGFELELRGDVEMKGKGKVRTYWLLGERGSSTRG
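Compound pre-incubated 30 min at room temperature on GloSensor-loaded HEK293 cells stably carrying hNpr1 and the pGS-40F cGMP biosensor. Stimulation uses hNppA at 0.1 nM final; luminescence is taken at baseline and 20 min post-agonist.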
* = called active by the depositor; ? = inconclusive; [ ] = remark or other dose. % is set by controls: 0 for no effect and ±100 for the full control effect; potency is the fitted concentration of half-maximal effect. This is a subset (hit frequency here may not be typical).

molecule | NPR1 antag
Cc1nc(C)c(C(=O)N2CCCC(N(C)C)CC2)s1 (stereo unspecified) | 3%
O=C(NCC1CCN(c2cc(-c3ccc(Cl)cc3)[nH]n2)CC1)c1ccc[nH]1 | -22%
Cc1nc(CC(=O)N2CC[C@@H]3[C@@H](CCC(=O)N3CCN)C2)c(C)s1 | -1%
COCC(=O)N(C)Cc1cccn1C | -1%[70.6 µM]
COc1cccc2ccc(-c3c(-c4ccccc4)ncn3CCNC(C)=O)nc12 | -21%
Cn1ccnc1C(=O)N1CCC(C2CCN(S(C)(=O)=O)CC2)C1 (stereo unspecified) | 3%
COc1cccc(-c2nc3cnccn3c2NCCC(=O)Nc2cccc(Cl)c2)c1 | -20%
O=C(O)CCC(=O)N1CCC(N(Cc2cccnc2)C2CCOCC2)CC1 | 6%
O=C(NCCc1ccccc1)N1CC(c2nc(CCOCC3CC3)no2)C1 | -3%
COc1ccc(F)c(-c2nc(CN3CCN4C(=O)CNC(=O)C4C3)c(C)o2)c1 (stereo unspecified) | 2%
Cc1nc(CN2C[C@H](C(=O)Nc3ccccc3)C[C@@H]2c2ccc(F)cc2)cs1 | 0%[70.6 µM]
COc1ccc([C@H]2C[C@@H](O)[C@@H](O)[C@@H]2NC(=O)c2cc3ccccc3s2)cc1 | ?

Copied from the list:
For NPR1 antag, COc1cccc(-c2nc3cnccn3c2NCCC(=O)Nc2cccc(Cl)c2)c1 has the entry -20%
For NPR1 antag, Cc1nc(C)c(C(=O)N2CCCC(N(C)C)CC2)s1 (stereo unspecified) has the entry 3%
For NPR1 antag, Cn1ccnc1C(=O)N1CCC(C2CCN(S(C)(=O)=O)CC2)C1 (stereo unspecified) has the entry 3%
For NPR1 antag, Cc1nc(CN2C[C@H](C(=O)Nc3ccccc3)C[C@@H]2c2ccc(F)cc2)cs1 has the entry 0%[70.6 µM]

The listing picks up, repeating the 2 entries before the break.
molecule | NPR1 antag
Cc1nc(CN2C[C@H](C(=O)Nc3ccccc3)C[C@@H]2c2ccc(F)cc2)cs1 | 0%[70.6 µM]
COc1ccc([C@H]2C[C@@H](O)[C@@H](O)[C@@H]2NC(=O)c2cc3ccccc3s2)cc1 | ?
COCC1CN(C2CCC2)CC12CCN(C(=O)CCc1ccccc1)CC2 (stereo unspecified) | -30%
COC(=O)c1cn([C@H]2CN[C@H](C(=O)N3CCC(O)(CO)CC3)C2)nn1 | 3%
O=C(NCc1ccccc1-n1cncn1)C12CNCC1CNC2 (stereo unspecified) | 3%
CCn1cc(-c2ccccc2)cc1C(=O)NC1CCCC1 | -10%
Cn1nc(C(=O)N2CCOCC(O)(CN3CCCC3)C2)ccc1=O (stereo unspecified) | 3%
COCC(=O)N1CCCC2(Cc3ccccc3NC2=O)C1 (stereo unspecified) | 0%[70.6 µM]
O=[S+]([O-])(c1ccccc1)N1CCn2c(nnc2-c2ccncc2)C1 | 15%[70.6 µM]
CCC(=O)N(C1CCOCC1)C1CCN(Cc2cccc(Br)c2)CC1 | 0%
CNC(=O)c1noc([C@@H]2CC(F)(F)CN2C(=O)CCOC)n1 | 3%
COC(=O)c1ccc2c(c1)nc1n2[C@@H](CNC(=O)c2ccc(Cl)cc2)COC1 | -3%[70.6 µM]
CCCCc1ccc(NC(=O)CN2C(=O)NC(c3ccc(Cl)cc3)C3=C2COC3=O)cc1 (stereo unspecified) | -21%
CNCCN1C(=O)CC[C@H]2CN(Cc3cc(C4CCCCC4)no3)CC[C@H]21 | 1%
NC(=O)c1ccc(OC2CCN(S(=O)(=O)c3ccc(F)cc3)CC2)nc1 | -3%
C[C@H]1[C@@H]2[C@H]3OC(=O)[C@@H](C)[C@@H]3CC[C@@]2(C)CC[C@@H]1NC(=O)Cc1ccccc1 | 2%[70.6 µM]
O=C(CC1COCCN1)NCCc1cnn(-c2ccccc2)c1 (stereo unspecified) | -1%
CCOc1cc(=O)n2c(c1C(=O)Nc1ccc(F)c(Cl)c1)CCCC2 | -3%
O=C(c1ccc(F)c(F)c1)N1CCN(C2CCN(CCc3ccccc3)C2=O)CC1 (stereo unspecified) | -9%
O=C(COc1ccccc1)NCC1(COc2ccccc2)C[C@@H](O)[C@@H](O)C1 (stereo partly specified) | 1%[70.6 µM]
CCc1ccc(S(=O)(=O)N2CC(C(=O)NC3CCCCC3)C3(CCOCC3)C2)cc1 (stereo unspecified) | -2%
O=C(Cc1ccsc1)N1CCC2(CC1)CN(c1ccncn1)CC2CO (stereo unspecified) | 7%
COc1cccc(CN2CCCC(O)(CN3CCCCC3)C2=O)c1 (stereo unspecified) | 8%
Cc1ccc(NC(=O)N[C@@H]2C=C(C(=O)N[C@H](C)C(N)=O)C[C@@H](O)[C@@H]2O)cc1 | 7%[70.6 µM]
Cc1ccc(CN2CCc3nc(N4CCN(C)CC4)[nH]c(=O)c3CC2)cc1 | -3%
CC(C)C(=O)N1CCC(NCCOc2ccccc2Cl)CC1 | -1%
O=C(NCc1ccccc1)C1COC2(CCN(C(=O)c3ccccc3F)CC2)N1C(=O)c1ccco1 (stereo unspecified) | 3%
CCN(Cc1ccc(C)o1)C(=O)c1ccc2nc(-c3ccc(F)cc3)cn2c1 | -15%
COc1ncccc1CN(Cc1cccnc1OC)C[C@H]1COCc2nc3ccc(C)cc3n21 | -17%
CNC(=O)CCn1ncc2cc(OC3CCc4cccc(-c5cnn(C)c5)c43)ccc21 (stereo unspecified) | 1%[70.6 µM]
Cc1cc(=O)n(CC(=O)Nc2ccc(Br)cc2F)c(N2CCc3ccccc3C2)n1 | ?
O[C@H]1COCCN(Cc2ccc(OC(F)(F)F)cc2)C1 | 3%[70.6 µM]
CNC(=O)N1C[C@@H](CN(C)C)[C@H](N)C1 | 5%
COc1ccc(NC(=O)C2CCN(C(=O)c3ncn4c3COC(c3ccc(F)cc3)C4)CC2)cc1F (stereo unspecified) | -2%
CN1CCC(N2CCN(S(=O)(=O)c3cccs3)CC2)C1=O (stereo unspecified) | 5%
CCC(=O)N(C1CCOCC1)C1CCN(Cc2cc(F)c(F)cc2F)CC1 | 7%
O=C(Cc1ccccc1)NCC1CN(Cc2ccncc2Cl)CC12CN(c1ccccc1)C2 (stereo unspecified) | 2%
CC(C)NC(=O)NC[C@H]1O[C@@H](CC(=O)Nc2ccccc2)[C@H](O)[C@@H]1O | -3%[70.6 µM]
CC(=O)N1CCc2[nH]cnc2C12CCN(Cc1nccn1C)CC2 | -2%
CC(=O)N(C1CC1)C1CCOC2(CCN(C(=O)CCc3ccccc3)CC2)C1 (stereo unspecified) | 2%
Cc1ccc(NC(=O)CN2C(=O)NC3(CCS(=O)(=O)CC3)C2=O)cc1C | 2%
COc1ccc(CN2CCNc3cnc(Nc4ccccc4)cc3C2)cn1 | -4%[70.6 µM]
Cc1cc(C(=O)N2CC(F)(F)C[C@H]2c2nc(C)no2)on1 | 0%
O=C(Nc1ccc2c(c1)CN(Cc1ccc(Cl)cc1)C(=O)CO2)c1ccccc1 | -22%
CNC(=O)[C@@H](Cc1ccccc1)N1CCC[C@H]1C(=O)NCc1cccnc1 | 3%[70.6 µM]
COCc1cn([C@H]2CO[C@H]3[C@@H]2OC[C@H]3OC(=O)Nc2ccc(C)cc2)nn1 | 6%[70.6 µM]
Cc1ccc(CNC(=O)CC2=C3CCCCC3N(C(C)C)C2=O)o1 (stereo unspecified) | 0%
Cc1cc(C(=O)N2C[C@@H](Oc3cccnc3)C[C@H]2C(=O)N2CCOCC2)nn1C | -3%
Cc1cc(Cl)ccc1S(=O)(=O)N1CCc2nn(C)c(=O)n2CC1 | -9%
Cc1nn(C)c(C)c1CCCN(C)C(=O)C1N(C(C)C)C(=O)C12CCCCC2 (stereo unspecified) | 1%

Some of these compounds in order of number of heavy atoms, highest first:
molecule | NPR1 antag
CC(=O)N(C1CC1)C1CCOC2(CCN(C(=O)CCc3ccccc3)CC2)C1 (stereo unspecified) | 2%
CNC(=O)[C@@H](Cc1ccccc1)N1CCC[C@H]1C(=O)NCc1cccnc1 | 3%[70.6 µM]
Cc1cc(Cl)ccc1S(=O)(=O)N1CCc2nn(C)c(=O)n2CC1 | -9%
Cc1cc(C(=O)N2CC(F)(F)C[C@H]2c2nc(C)no2)on1 | 0%

Next part
molecule | NPR1 antag
CN1c2cc(C(=O)Nc3ccc(Cl)c(F)c3)ccc2C(=O)N2CCCCC21 (stereo unspecified) | -2%
CCc1cccc2c(C(CC(=O)N3CCCC3)c3ccc(Cl)c(Cl)c3)c[nH]c12 (stereo unspecified) | 5%
Cc1ccc(NC(=O)N2CCC(c3nc(CCOCC4CC4)no3)C2)cc1C (stereo unspecified) | 4%
COc1ccccc1-c1[nH]nc2ncc(-c3cccc(O)c3)nc12 | -5%[70.6 µM]
CC(C)CC1=NS(=O)(=O)c2cc(NC(=O)C3CCC3)ccc2N1c1ccccc1 | -9%
CN(CCc1cnn(C)c1)C(=O)c1cn(Cc2cccc(C(F)(F)F)c2)nn1 | -1%
Cc1ccc(-n2nc(C)c([C@@H]3C=C[C@@H](NS(=O)(=O)c4cccs4)C3)c2C)cc1Cl | ?
COCCNc1c(-c2noc(C)c2C(=O)Nc2ccc(F)c(OC)c2)cnn1C | 0%[70.6 µM]
COc1ccc(NC(=O)N2c3ccccc3CC2c2nc(C3CC3)no2)c(C)c1 (stereo unspecified) | -12%
CN(Cc1nc(-c2ccncc2)no1)C1CCC2(CCNCC2)CC1 | 0%
COc1ccc(NC(=O)C2(Cc3ccccc3)CCCCC(=O)N2)cc1F (stereo unspecified) | 4%
Cc1cc(C)n(CCCNC(=O)c2cccc(C3CCNC3)c2)n1 (stereo unspecified) | 2%
O=C1Nc2ccccc2CC12CCN2Cc1cncs1 (stereo unspecified) | -1%[70.6 µM]
N#Cc1cccc(NC(=O)N[C@H]2CO[C@H]3[C@@H]2OC[C@@H]3n2nnnc2Oc2ccc(-n3cncn3)cc2)c1 | -6%
CS(=O)(=O)NC[C@H]1OC[C@@H](NC2CCC(F)(F)CC2)[C@@H]1O | 13%[70.6 µM]
O=C(NCCn1cccn1)c1ccc(C2CCNC2)cc1 (stereo unspecified) | 0%
O=C1COc2ccc(-c3ccccc3)nc2CN1Cc1ccc(F)cc1 | -18%[70.6 µM]
CCCc1noc(-c2ccn3c(CNC(=O)c4ccc5ccccc5n4)nnc3c2)n1 | 11%
CN(C)S(=O)(=O)N1CCCCCCNC(=O)[C@@H]2CCC[C@@H]21 | 5%
Cc1noc(-c2ccn3c(CNC(=O)COc4ccc(F)cc4)nnc3c2)n1 | -5%
Cc1cc(CN(C)C(=O)CC(c2ccccc2)c2ccccc2C)n[nH]1 (stereo unspecified) | -1%
O=C1NCCCCCCN(S(=O)(=O)c2ccccc2)[C@H]2C[C@H](c3nc(-c4cccnc4)no3)C[C@@H]12 | -8%
O=C1CCN(C(=O)C2CCN(C(=O)C3CCOCC3)CC2)CCCCCCN1 | 1%
COc1ccc(Cn2nc(C3CC3)nc2-c2c(F)cccc2Cl)cc1 | -12%
COc1ccc(C)cc1NC(=O)N1CCCC(Cn2c(C3CC3)nc3cccnc32)C1 (stereo unspecified) | -6%
Cc1cnc(CC2CCCN(C(=O)CCc3c[nH]c4ccccc34)C2)n1C(C)C (stereo unspecified) | -1%
CCCNC(=O)CC1COc2ccc(C(=O)NCCOC)cc2N1C (stereo unspecified) | -7%
O=C(c1cccc(Cl)c1)N1CCCC2(Cc3ccccc3NC2=O)C1 (stereo unspecified) | 16%
CC(C)c1noc(-c2cccn3c(CNC(=O)c4ccccn4)nnc23)n1 | 3%
COCCN1C(=O)CCC2(CNC(=O)c3ccncc3)CCCC=C12 (stereo unspecified) | 0%
Cc1nn2c(c1-c1ccccc1C(C)C)N(C(=O)CCc1cccnc1)CCC2 | -25%[70.6 µM]
O=C(N1CCC2(CCNCC2)CC1)C1(S(=O)(=O)c2ccccc2)CC1 | 4%
COc1ncccc1-c1nccc2c(=O)cc(-c3ccncc3)oc12 | 13%[70.6 µM]
O=C(c1ccc(=O)[nH]n1)N1CCCC(c2ccn[nH]2)C1 (stereo unspecified) | 2%
Cc1ccc(-n2c(C3CCN(C(=O)COc4cccc(C)c4)CC3)n[nH]c2=O)cc1 | -14%
O=C(NCCc1ccccc1)[C@@H]1C[C@H](c2ccc(F)cc2)N([S+](=O)([O-])C2CC2)C1 | 2%[70.6 µM]
CC[C@H]1CN(C(C)=O)CC[C@H]1CC(=O)Nc1nccs1 | -20%[70.6 µM]
CN1CCN(C(=O)[C@@H]2CCC[C@@H](NC(=O)NC3CCCC3)CN(C)C(=O)C2)CC1 | 7%[70.6 µM]
COc1ccc(NC(=O)Cc2c[nH]c3ncc(-c4ccccc4)cc23)cc1OC | ?
O=C(O)C1CC2(CCN(C(=O)CCCn3ccnc3)CC2)CN1 (stereo unspecified) | 2%
Cc1nc(CN2CCN(C(C(=O)O)c3cc4ccccc4o3)CC2)cs1 (stereo unspecified) | 0%
C=CCN(C)C(=O)[C@@H](C)C1CC[C@@]2(C)Cc3sc(NCCCC)nc3[C@@H](C)[C@@H]2[C@H]1O (stereo partly specified) | -13%[70.6 µM]
Cn1ccnc1CNC(=O)C[C@@H]1C[C@H]2O[C@H](CNC3CCNCC3)[C@@H](O)[C@H]2O1 | 3%
CC(=O)c1cc(CC(=O)NCc2cc(F)c(F)cc2F)cs1 | -2%
COC1C(=O)N(C2CCN(C(=O)c3cc4ccccc4[nH]3)CC2)C12CCOCC2 (stereo unspecified) | -18%
CC(=O)Nc1cccc(OCC2CN(Cc3cccc(C(F)(F)F)c3)C(=O)c3c(ccnc3-c3ccc(OCC(=O)O)cc3)O2)c1 (stereo unspecified) | -13%
COc1ccc(C(=O)N2CCCC3(C2)Nc2cccnc2NC3=NC2CCCC2)cc1F (stereo unspecified) | -1%
COC(=O)c1cccc(OCCn2ccnc2-c2nc[nH]c2C)c1 | -9%
CCc1nc2c(c(-c3ccc(O)cc3)n1)CN(Cc1ccc(OC(F)(F)F)cc1)CC2 | 0%

Compound activity as filed in PubChem.
